# LANA-nucl inh: inhibitors of KSHV LANA binding to nucleosomes | z-score (concentration not given with the values) | FITC-LANA1-23 / chicken nucleosome fluorescence polarization; stronger effect = lower value | AID 720717 | 51,000 tested, 0.3% active;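 active = both repeat wells score below -2 in polarization z-score versus plate sample wells, excluding overly bright wells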;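 note: 100 nL library stock added to about 30 µL; numbers are from one replicate; some results filed as inactive read as strong as hits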
#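 Assay system: purified chicken nucleosomes with FITC-labelled LANA N-terminal peptide (1-23) / Probe or stimulus: 50 nM FITC-LANA1-23 probe / Compound dosing: pin-transferred compound, 100 nL / Times: compound with peptide–nucleosome mix 10–45 min at room temperature / Technique: fluorescence polarization, 480 nm excitation, 535 nm parallel and perpendicular emission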
# Ab BasE inh: inhibitors of Acinetobacter baumannii siderophore enzyme BasE; purified BasE, fluorescence polarization binding displacement; inhibition, % (test concentration not listed); AID 485350; 84,000 tested, 0.1% active;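 active = both replicates above 25% with normal brightness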;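 note: 0% = negative plate control signal and 100% = positive plate control signal; stock transfer was 100 nL into about 30 µL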
# * = called active by the depositor; · = not tested or not shown; & = joins results of further samples.
SMILES,LANA-nucl inh,Ab BasE inh
CCOC(=O)c1cc(C#N)c(Sc2n[nH]c(C(F)(F)F)n2)nc1C(F)(F)F,-0.387,-0.4
CC1=C(C)NC(=S)SC1,-0.463,1.1
CCc1ccccc1NC(=O)C(CC)CC,1.88,-4.6
CC1/C(=N/O)CC(c2ccco2)NC1c1ccco1 (configuration not stated),-1.08,2.3
COC(=O)c1sc(NC(=O)C(F)(F)F)c(C(=O)OC)c1C,0.367,0.4
Nc1c(NCCO)c2ccccc2oc1=O,0.368,0.3
N#CC(=C1SC2CS(=O)(=O)CC2S1)c1nc2ccccc2s1 (configuration not stated),·,-1.8
COc1cccc(N2CC(C(=O)Nc3c(C(N)=O)oc4ccccc34)CC2=O)c1 (configuration not stated),-1.19,-1.0
O=C1c2cccc3cccc(c23)N1CNc1ncccn1,·,-4.8
O=C(CN(c1cccc(Br)c1)S(=O)(=O)c1ccccc1)N1CCOCC1,0.104,2.3
CC1=C(C(=O)Nc2ccc(F)cc2)C(c2ccc(F)cc2)C2=C(CC(c3ccccc3)CC2=O)N1 (configuration not stated),·,-0.3
CCN(c1ccccc1)S(C)(=O)=O,-0.038,-0.2
CCn1c(SCC(=O)N/N=C/c2ccccc2)nnc1-c1ccccc1,0.237,0.3
Cc1csc(SC(C)C(=O)Nc2ccccc2C)n1 (configuration not stated),·,0.5
CCOC(=O)c1cnc2c(OC)cccc2c1NCCc1ccc(OC)c(OC)c1,0.0625,-0.5
Cc1cccc(S(=O)(=O)NCc2cn3cccc(C)c3n2)c1,0.243,-0.7
NC(=O)c1n[nH]c(=O)c2ccccc12,·,-0.1
CCC(=O)Oc1ccc2c(C)cc(=O)oc2c1C(=O)CC,0.288,1.5
N#CC(C#N)=Cc1ccc(-c2cccc(C(=O)O)c2)o1,-0.795,1.7
Cc1cc(C(=O)COC(=O)/C=C/c2ccco2)c(C)n1C,·,-1.6
O=C(COc1ccccc1O)OCCO,·,6.6
CCNC(=S)N(C)c1ccc(O)cc1,·,0.2
COc1ccc(CC(=O)N(C)Cc2cccc(OC)c2OC)cc1,·,-1.5
Cc1cc(C)cc(NC(=S)NC(=O)C2CC2)c1,-0.463,2.1
CN(C)S(=O)(=O)c1ccc2oc3nnc(SCC(N)=O)n3c2c1,·,-5.4
SMILES,LANA-nucl inh,Ab BasE inh
CCN(CC)S(=O)(=O)c1ccc(-c2ccc(/C=C3/N=C4CCCCCN4C3=O)o2)cc1,·,-5.2
COCC(C)n1c(C)cc(C(=O)COC(=O)c2ccc(C#N)cc2)c1C (configuration not stated),·,-1.1
O=C1CSC2=NC3=C(CCCC3=C3SCCCS3)C(c3ccccc3)N12 (configuration not stated),·,-0.9
Cc1cc(C(=O)CSc2nnc(C(F)(F)F)n2C)c(C)n1C1CC1,·,0.4
Cc1cccc(C(=O)OCC(=O)N(C)C)c1O,·,0.2
CN(C)c1nc2ccccc2c(=O)s1,·,2.4
CCN1CCc2c(sc3c2C(=O)NC(c2ccc(COc4cccc(C(F)(F)F)c4)o2)N3)C1 (configuration not stated),·,2.6
CCOc1cccc(OCCCN(C)Cc2ccccc2)c1,-1.29,4.9
O=C(O)c1cn2ccccc2c1C(=O)O,-0.732,·
O=S(=O)(c1ccccc1)N(c1cccnc1)S(=O)(=O)c1ccccc1,-0.349,-0.5
CC(=O)N1CCN(C(=O)c2ccc(S(=O)(=O)N3CCCc4ccccc43)cc2)CC1,·,0.4
O=C(NCCSCc1ccccc1)c1ccccc1,-0.881,-0.5
CC(=O)Nc1ccc2c(COC(=O)Cc3coc4cc5c(cc34)CCC5)cc(=O)oc2c1,·,2.1
CC1CCN(S(=O)(=O)c2ccc3[nH]cc(C(=O)NC4CCCCCC4)c(=O)c3c2)CC1,-0.518,0.8
CCN(Cc1ccncc1)C(=S)Nc1ccccc1,2.44,-1.8
O=C(Oc1ccc(Br)cc1)C1CCC(N2C(=O)C3C4C=CC(C4)C3C2=O)CC1 (configuration not stated),1.08,-0.9
CCn1cc(CO)c(C)n1,-0.701,1.3
CCN(CC)CCNC(=O)COc1ccc(OC)cc1,-0.31&0.492&-0.698,-1.1&3.2
CCCCn1c(N)c(N(C)C(=S)NCCCN2CCOCC2)c(=O)[nH]c1=O,·,1.6
CC(Sc1nnc(-c2cccs2)n1C1CC1)c1nc2ccccc2c(=O)[nH]1 (configuration not stated),·,-0.9
Cc1cc(OCC(=O)OCC(=O)Nc2ccc(F)cc2)no1,·,1.6
CC1(C)CC(=O)c2cc(C(=O)Nc3cccc(O)c3)c(=O)[nH]c2C1,-1.1,0.6
N#CCC(=O)N1CCN(C=O)CC1,·,0.8
COC(=O)c1ccc(CSc2n[nH]c(=O)[nH]c2=O)cc1,·,-0.7
COc1ccc(Cl)cc1-c1nc(SCC(=O)N(CC(C)C)C2CCS(=O)(=O)C2)n[nH]1 (configuration not stated),·,-0.4
SMILES,LANA-nucl inh,Ab BasE inh
COc1ccc(CCNc2oc(-c3ccc(C)cc3)nc2C#N)cc1OC,-1.39,0.8
O=C(O)CSCC(=O)Nc1ccc(-c2cn3ccsc3n2)cc1,·,15.6
Cc1ccc(NC(=O)Cc2nc(CN3CCCC3c3cccs3)cs2)cc1 (configuration not stated),·,-2.9
NC(=O)c1ccsc1NC(=O)Cc1ccc(S(=O)(=O)N2CCOCC2)s1,·,-3.5
CCOC(=O)C1=C(C)OC(N)=C(C#N)C1C1CCCCC1 (configuration not stated),-0.522,-0.9
CCOc1ccc(-c2cc(C(=O)N3CCCCC3C)[nH]n2)cc1 (configuration not stated),-1.14,0.1
CSc1nc(C=Nc2cccc(Cl)c2)c(O)n1Cc1cccc(Cl)c1,·,-0.3
COC(=O)CSc1nc(C2CC2)cc(C(F)(F)F)c1C#N,1.84,-3.6
O=S1(=O)CCN(Cc2ccc(F)cc2F)CC1,0.156,1.4
C/C(N)=C/C(=O)c1ccccc1,-0.491,·
CCCCNC(=O)c1cccc2c1C(=O)N(CCC)C2,-0.231,-0.2
c1ccc(SCCc2ccccn2)cc1,·,1.1
O=C(c1ccc2c(c1)C(=O)N(CCCO)C2=O)c1ccc2c(c1)C(=O)N(CCCO)C2=O,-0.513,-0.5
CN(Cc1ccco1)C(=O)C1=Cc2sc3c(c2CS1)CCCC3,1.2,-0.8
CS(=O)(=O)N1CCN(c2ccc(NC(=O)CSc3nnc(Cc4ccccc4)o3)cc2)CC1,-0.039,1.9
CC(C)CC(=O)N(c1nnc(-c2cccnc2)s1)C1CCCC1,-0.607,-1.1
CSc1nc2c(c(=O)[nH]1)C(c1ccc(F)cc1F)CC(=O)N2 (configuration not stated),-0.611,1.6
O=C(CC1S/C(=N/N=C2\CSC(=O)N2)NC1=O)Nc1ccccc1 (configuration not stated),-0.12,0.6
CC(C)(C)c1cc(C(F)(F)F)nc(SCCNC(=O)c2cnn3cccnc23)n1,0.367,2.2
CCCCN1C(=O)CS/C1=C(/C#N)C(=O)Nc1cccc(OC)c1,·,-1.0
O=C(CCN1C(=O)NC2(CCCC2)C1=O)Nc1ccc(S(=O)(=O)N2CCCCC2)cc1,·,0.3
CC(C)N1C(=O)c2ccccc2CC1(C)C(=O)NC1CCCCCC1 (configuration not stated),-0.0945,5.9
CCC(c1nnc(SCC(=O)N2CCOCC2)o1)N(C)C (configuration not stated),·,0.3
CCOC(=O)c1sc(N)c(C(=O)OCC)c1CSc1nnc2n1CCCCC2,·,0.2
CSc1ncc(Cl)c(C(=O)N(Cc2ccccc2)Cc2ccco2)n1,1.25,-1.9
SMILES,LANA-nucl inh,Ab BasE inh
FC(F)Oc1ccc(NC(=S)NNc2nc3ccccc3[nH]2)cc1,·,-3.4
O=C(c1cccc(-n2cnnn2)c1)N1CCCC(c2nc3ccccc3s2)C1 (configuration not stated),·,0.0
COC(=O)c1ccc(CSc2nc3ccccc3c(=O)n2-c2ccccc2)o1,·,0.7
CC(C)CN(C1CCS(=O)(=O)C1)S(=O)(=O)c1cccs1 (configuration not stated),-1.6,3.5
N/C(=N\OC(=O)CCn1c(=O)oc2ccccc21)c1ccc(Cl)cc1,-0.09,-1.8
O=c1/c(=C/c2ccccn2)sc2n1CN(c1ccccc1)CN=2,·,1.9
S=c1n(-c2ccccc2)cnn1CN1CCCCC1,-0.237,2.3
CC(NC=O)c1ccc(Br)cc1 (configuration not stated),-0.27,3.8
CCOC(=O)CNc1cccc(C(=O)O)c1,-0.641,2.0
O=C1CCCC(O)=C1N=Nc1cccc(C(=O)O)c1,·,3.9
CCC(C)N(Cc1nc(N)nc(Nc2ccccc2C)n1)Cc1nc(N)nc(Nc2ccccc2C)n1 (configuration not stated),·,-1.2
O=S(=O)(c1ccccc1)c1nc(-c2cccs2)oc1NCCCn1ccnc1,-0.164,2.2
CC(C)(C)C(=O)NCc1ccc2c3c(cccc13)C(=O)N2,·,0.7
CC1CCN(S(=O)(=O)N(C)C)CC1,-1.32,1.6
Cc1cc(NC(=O)c2ccc(N)cc2)c(N)cc1N,·,0.5
CCOc1ccccc1N1CCN(C(=O)c2cc3c(C)cc(C)cc3[nH]2)CC1,0.119,1.1
Cc1cccc(NC(=S)N2CCC(NC(=O)c3ccco3)CC2)c1,-0.161,4.0
O=C(c1cc(=O)[nH]c2ccccc12)N1CCN(Cc2ccccc2)CC1,·,1.9
CC(c1ccccc1)N1CCC(c2nc3ccccc3[nH]2)CC1 (configuration not stated),2.19,-3.8
O=C(CN1C(=O)c2cccc3cccc1c23)NC1CCCC1,-1.45,9.6
O=c1n(-c2ccc(F)cc2)nc2n1CCCN2,·,3.1
O=C(Cc1csc(NC(=O)Nc2ccc(Cl)cc2)n1)NCc1ccco1,0.782,-1.1
Cc1ccc(SCC(=O)NN=C2CCN(C)CC2)cc1,-0.516,3.1
CC(C)N(C(=O)Cn1c2ccccc2c2nc3ccccc3nc21)c1ccccc1,·,0.9
O=C(OCC(=O)N(CC1CCCO1)c1nc(-c2ccc(Br)cc2)cs1)c1ccco1 (configuration not stated),·,2.8
SMILES,LANA-nucl inh,Ab BasE inh
CCOC(=O)c1sc2ncn3c(-c4ccc(C)cc4)nnc3c2c1C,·,-1.4
CN(C)C(=O)COC(=O)C1CCN(S(=O)(=O)c2ccccc2C(F)(F)F)CC1,·,4.2
CCC(C)NC(=O)Nc1cccc(C)c1 (configuration not stated),0.322,0.6
CC(C)(C)NC(=O)C1N(C2CC2)C(=O)C2C(C(=O)NCc3ccccc3)C3C=CC21O3 (configuration not stated),0.116,-0.3
O=C(Cc1cnn(-c2ccccc2)c1)c1ccc(O)c(O)c1O,0.369,2.6
Cn1cc(NC(=O)N2CCc3ccccc3C2)c2ccccc21,-0.255,-0.1
CCCCNC(=O)C1CCN(Cc2cccc(OC)c2O)CC1,0.803,0.9
Cc1ccc2c(N)c(C(=O)c3ccc4c(c3)OCCO4)sc2n1,-0.427,0.6
CCCC(C(=O)NCc1ccccn1)N1Cc2ccccc2C1=O (configuration not stated),-0.54,0.0
O=CNCCc1nc2ccccc2n1Cc1ccccc1,0.252,-1.2
N/C(=N/c1nc2ccccc2o1)NC(=O)/C=C/c1ccccc1,·,0.2
O=C(OCCN1C(=O)c2ccccc2C1=O)c1cc2ccccc2o1,-0.333,5.9
CC(C)NC(=O)C(C)n1c2ccccc2c2cn[nH]c(=O)c21 (configuration not stated),-1.7,0.0
CCc1ccc(N2C(=O)C3N=NN(CCc4ccc(OC)cc4)C3C2=O)cc1 (configuration not stated),0.16,1.6
Brc1ccc(-c2ccc3ccccc3n2)s1,-0.467,·
Clc1ccc(-c2csnn2)cc1Cl,-0.248,·
CC(C)C(C(=O)Nc1ccc(S(=O)(=O)Nc2ncccn2)cc1)N1C(=O)c2ccccc2C1=O (configuration not stated),·,1.8
CC(C)CSc1nnc(CSCc2nc(-c3ccc(Cl)cc3)cs2)n1C,·,-1.4
CCC(CO)Nc1ncnc2onc(C)c12 (configuration not stated),·,-0.6
O=S(=O)(Nc1ccc(N2CCCCC2)cc1)c1cccs1,0.0035,·
c1ccc(OCCOc2ncnc3ccccc23)cc1,·,-0.3
CCN(C(=O)CN1CCCCC1)c1c(N)n(Cc2ccccc2)c(=O)[nH]c1=O,·,-0.9
COc1ccc2c(c1C)OC(C)(C)CC2=O,-0.81,0.1
CCCCC(C)(O)C/C=C/[C@H]1[C@H](O)CC(=O)[C@@H]1CCCCCCC(=O)OC (some centres not stated),-0.248,·
Cc1ccc(C(=O)ONc2ccc(N=O)cc2)cc1,-0.314,0.2

# 2 records picked at random from the list so far, as already listed:
SMILES,LANA-nucl inh,Ab BasE inh
Brc1ccc(-c2ccc3ccccc3n2)s1,-0.467,·
CC1CCN(S(=O)(=O)c2ccc3[nH]cc(C(=O)NC4CCCCCC4)c(=O)c3c2)CC1,-0.518,0.8

# Some of the entries above, set out differently:
O=C(OCCN1C(=O)c2ccccc2C1=O)c1cc2ccccc2o1
  LANA-nucl inh: -0.333; Ab BasE inh: 5.9
CC(C)NC(=O)C(C)n1c2ccccc2c2cn[nH]c(=O)c21 (configuration not stated)
  LANA-nucl inh: -1.7; Ab BasE inh: 0.0
CCc1ccc(N2C(=O)C3N=NN(CCc4ccc(OC)cc4)C3C2=O)cc1 (configuration not stated)
  LANA-nucl inh: 0.16; Ab BasE inh: 1.6
Brc1ccc(-c2ccc3ccccc3n2)s1
  LANA-nucl inh: -0.467; Ab BasE inh: ·

# Ordered by SMILES length (lowest first): some entries from above.
SMILES,LANA-nucl inh,Ab BasE inh
CC1=C(C)NC(=S)SC1,-0.463,1.1
O=C(NCCSCc1ccccc1)c1ccccc1,-0.881,-0.5
Cc1ccc2c(N)c(C(=O)c3ccc4c(c3)OCCO4)sc2n1,-0.427,0.6
CN(C)S(=O)(=O)c1ccc2oc3nnc(SCC(N)=O)n3c2c1,·,-5.4
CSc1nc2c(c(=O)[nH]1)C(c1ccc(F)cc1F)CC(=O)N2 (configuration not stated),-0.611,1.6
COc1ccc(Cl)cc1-c1nc(SCC(=O)N(CC(C)C)C2CCS(=O)(=O)C2)n[nH]1 (configuration not stated),·,-0.4

# Bioassay records from PubChem.

# This is a subset; the hit share may differ from the screen's.
